Screening results deposited in PubChem by National Center for Advancing Translational Sciences (NCATS).
hNpr1 antagonist = human Npr1 receptor antagonism. HEK293 hNpr1 GloSensor cGMP, ANP-stimulated luminescence. 1.6% of 76,000 active. Potency, µM (titrated, usually from 46.3 µM), for the others: top-dose activity change, negative = inhibition, usual class: inhibitors. P16066; active = well fitted inhibition curve with a large enough effect; inconclusive = small, poorly fitted or top-dose-only effect; inactive = no such curve, though single readings can be large or run the other way;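 further: nearly all actives have a fitted effect of over 60% in size; nearly all hits also lower the signal before the agonist is added; a reference antagonist and vehicle were the controls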
Target sequence (P16066 whole entry, looked up): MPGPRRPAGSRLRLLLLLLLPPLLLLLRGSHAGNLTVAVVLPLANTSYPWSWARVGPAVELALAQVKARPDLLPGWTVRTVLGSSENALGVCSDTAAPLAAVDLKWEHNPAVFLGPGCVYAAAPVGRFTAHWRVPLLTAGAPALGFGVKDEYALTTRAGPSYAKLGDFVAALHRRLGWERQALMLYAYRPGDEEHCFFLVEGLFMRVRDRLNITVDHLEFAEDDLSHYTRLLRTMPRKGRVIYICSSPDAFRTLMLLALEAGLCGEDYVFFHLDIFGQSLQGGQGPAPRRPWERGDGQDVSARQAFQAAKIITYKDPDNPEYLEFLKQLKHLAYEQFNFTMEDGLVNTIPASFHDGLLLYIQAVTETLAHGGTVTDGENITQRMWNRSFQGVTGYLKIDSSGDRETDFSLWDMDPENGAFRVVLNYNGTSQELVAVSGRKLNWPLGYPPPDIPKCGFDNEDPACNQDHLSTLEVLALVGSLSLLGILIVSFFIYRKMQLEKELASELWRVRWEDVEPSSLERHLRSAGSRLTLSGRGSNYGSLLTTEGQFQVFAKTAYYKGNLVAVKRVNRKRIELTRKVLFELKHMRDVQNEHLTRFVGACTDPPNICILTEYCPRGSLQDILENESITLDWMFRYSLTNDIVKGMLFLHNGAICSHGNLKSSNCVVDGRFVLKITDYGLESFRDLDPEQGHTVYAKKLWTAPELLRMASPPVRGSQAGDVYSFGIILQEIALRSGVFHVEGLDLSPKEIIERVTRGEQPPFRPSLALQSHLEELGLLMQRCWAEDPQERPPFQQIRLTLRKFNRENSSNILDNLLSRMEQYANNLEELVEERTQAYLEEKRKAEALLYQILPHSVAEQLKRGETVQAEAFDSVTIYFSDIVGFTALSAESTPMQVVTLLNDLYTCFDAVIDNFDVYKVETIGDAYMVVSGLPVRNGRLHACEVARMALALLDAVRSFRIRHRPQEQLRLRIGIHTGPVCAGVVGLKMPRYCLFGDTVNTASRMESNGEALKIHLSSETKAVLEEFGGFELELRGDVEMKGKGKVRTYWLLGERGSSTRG
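HEK293 cells stably expressing human Npr1 and cGMP GloSensor pGS-40F, loaded 2 h with 2% GloSensor reagent, given compound 30 min at room temperature. Luminescence read before and 20 min after 0.1 nM hNppA.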
An asterisk follows results filed as active; ? = inconclusive; [ ] = dose if it differs, or a comment. On the % scale 0 is the no-effect control and ±100 the full control effect; potency means the concentration at half of the fitted maximal effect.

cpd	Structure	hNpr1 antagonist
1	O=C1NC2(CCN(Cc3ccsc3)CC2)Oc2ccccc21	-23%[70.6 µM]
2	CCOC(=O)C1CCN(C(=O)Cc2ccc(N(Cc3cccc(F)c3)C(=O)c3ccco3)cc2)CC1	?
3	CN(C)c1ccc(-c2ccnc(N[C@H]3CO[C@H]4[C@@H]3OC[C@H]4OC(=O)Nc3cccc(C#N)c3)n2)cc1	?
4	CC(C)(Oc1nn(CC2CCOCC2)c2ccccc12)C(=O)NCc1ccccc1	-5%[70.6 µM]
5	Cc1cccc(N(C)C(=O)Cn2c(N3CCc4ccccc4C3)nc(C)cc2=O)c1	?
6	CCN(CC)[C@H]1[C@@H]2OC[C@@H](O2)[C@@H](NCc2ccc(OC(F)(F)F)cc2)[C@@H]1O	1%[70.6 µM]
7	O=c1[nH]c(C2CCN([S+](=O)([O-])c3cccc(C(F)(F)F)c3)CC2)nn1-c1ccc(F)cc1	14%
8	CO[C@H]1C(=O)N(C2CCN(C(=O)c3ccc4[nH]ccc4c3)CC2)[C@H]1c1ccncc1	1%

The last two compounds of the section above are carried over, then new ones follow:
cpd	Structure	hNpr1 antagonist
7	O=c1[nH]c(C2CCN([S+](=O)([O-])c3cccc(C(F)(F)F)c3)CC2)nn1-c1ccc(F)cc1	14%
8	CO[C@H]1C(=O)N(C2CCN(C(=O)c3ccc4[nH]ccc4c3)CC2)[C@H]1c1ccncc1	1%
9	Cn1c(Cn2ccnc2)nnc1C1CCCN(C(=O)CSCC2CC2)C1 (stereo unspecified)	0%
10	O=C(c1ccc2ccccc2n1)N1CCC(c2n[nH]c(=O)n2-c2ccccc2)CC1	0%
11	NC1(Cc2cc(C(=O)N3CCCCC3)on2)COC1	4%[70.6 µM]
12	CC(C)N(C)S(=O)(=O)c1ccc2c(c1)CCN(C(=O)c1cscn1)C2	2%
13	Cc1noc2nc3c(c(C(=O)N[C@H]4CC[C@H]4NC4CCCC4)c12)CCC3	5%
14	CCOc1ccc2c(n1)CCN(C(=O)Nc1ccc(C)cc1C)C2	1%
15	CN(C)C(=O)N(C)C1CCc2ccccc2C1 (stereo unspecified)	4%[70.6 µM]
16	CN1CCN(c2ccc3ncn(-c4cccnc4)c(=O)c3n2)CC1	2%[70.6 µM]
17	COc1ccc(C(=O)N2CCC(Oc3ccc(C(=O)N4CCOCC4)cn3)CC2)cc1	-9%
18	CCS(=O)(=O)N(C1CC1)C1CCOC2(CCN(C(=O)c3cc(F)ccc3F)CC2)C1 (stereo unspecified)	1%
19	C=CCN1CC2(CCC1=O)CCN(C(=O)[C@H](OC)c1ccccc1)CC2	5%
20	CS(=O)(=O)N(C1CC1)C1CCOC2(CCN(C(=O)COc3ccc(F)cc3)CC2)C1 (stereo unspecified)	-12%
21	O=C(N1CCC(n2cc(-c3nc(C4CC4)no3)nn2)C1)C1(c2ccccc2)CC1 (stereo unspecified)	5%
22	O=C(C[C@@H]1CCNC[C@@H]1Cc1cc(COc2ccccc2)on1)NCc1ccco1	-14%[70.6 µM]
23	O=C(CSc1ccccn1)NCc1cccnc1Oc1ccccc1	4%
24	O=S(=O)(Nc1cccn2ncnc12)c1ccc(C2CCCCC2)cc1	?
25	O=C(NC1CCc2nnc(C3CC3)n2CC1)c1ccoc1 (stereo unspecified)	3%
26	Cc1ccc(CN2CCc3nc(N(C)C)[nH]c(=O)c3CC2)cc1C	2%
27	O=C(NCCn1cccn1)c1cccc(S(=O)(=O)NC2CCNCC2)c1	3%
28	O=C(Nc1cc(F)cc(F)c1)Nc1cccc(-c2ccc(N3CCOCC3)nn2)c1	10µM*
29	O=C(NC1C[C@H]2CC[C@@H](C1)N2C(=O)CCc1nc2ccccc2s1)c1ccncc1 (stereo partly specified)	4%
30	O=C(Cc1ccccc1F)N1CCCC(c2nc(C3CCOCC3)no2)C1 (stereo unspecified)	16%
31	COc1ccccc1C(=O)N1CCCC(CN2CCC(C)CC2)CC1 (stereo unspecified)	0%
32	Cc1ccc(NC(=O)C2N(C(C)C)C(=O)C23CCCCC3)cc1 (stereo unspecified)	4%
33	Cc1ccc(C(=O)N2CCC(c3n[nH]c(=O)n3Cc3ccc(F)cc3)CC2)c(C)c1	6%
34	COCCN(C)C(=O)c1cn2cc(-c3cccc(Cl)c3)n(CC3CC3)c(=O)c2n1	0%
35	Cc1ccc(-c2noc([C@@H]3CCCN3C(=O)Cc3cccc(C)c3)n2)cc1	0%
36	CN(C)c1cccc(Oc2nnnn2[C@H]2CO[C@H]3[C@@H]2OC[C@@H]3NCC2CC2)c1	-4%[70.6 µM]
37	O=C(c1ccccc1F)N1CCN(c2cc(-c3ccc(F)cc3)[nH]n2)CC1	?
38	COc1ccc(CNC(=O)c2cc3c(N4CCCC4)nc(C)cn3n2)c(OC)c1	-2%
39	CN(C)C[C@@H]1CN(c2ncccn2)C[C@H]1NC(=O)CCc1ccccc1	6%
40	CN1CCN([C@H]2CCN(C(=O)Cc3cccc(O)c3)C[C@H]2CCCO)CC1	-2%
41	O=C(c1ccc2c(c1)OCCN(c1cccc(OC(F)(F)F)c1)C2)N1CCOCC1	?
42	O=c1cc(-c2cccnc2)oc2c(NCc3ccccc3)nccc12	5%[70.6 µM]
43	COc1ccc(C2(C(=O)N3CCCN(C(=O)C4CC4)C(c4ccccc4)CC(=O)NCC3)CC2)cc1 (stereo unspecified)	0%
44	CCc1ccc(S(=O)(=O)N2CCN(C3CCN(CCc4ccccc4)C3=O)CC2)cc1 (stereo unspecified)	-21%
45	CNC(=O)[C@@H]1CN(C(=O)c2n[nH]c3ccccc23)C[C@H]1c1nc(C)no1	5%
46	COCCOC1CCOC2(CCN(C(=O)Cc3ccccc3)CC2)C1 (stereo unspecified)	0%
47	CC(C)CCN1CC2(CCCN(C(=O)c3ccn(C)c(=O)c3)C2)CCC1=O (stereo unspecified)	2%
48	COc1ccc(Cl)cc1-c1ccc2c(c1)C(=O)N1CCN(C(=O)CC3(CC(=O)O)CCCC3)C[C@H]1C(=O)N2	-3%

hNpr1 antagonist: hit marks shown above.
cpd	Structure	hNpr1 antagonist
28	O=C(Nc1cc(F)cc(F)c1)Nc1cccc(-c2ccc(N3CCOCC3)nn2)c1	10µM*

(listing goes on)
cpd	Structure	hNpr1 antagonist
49	CN(C)C[C@@H]1CN(Cc2ccccc2)C[C@H]1NC(=O)c1cn[nH]c1	3%
50	Cc1ccsc1C(=O)N1CC2CC(C1)[C@H]1CCCC(=O)N1C2 (stereo partly specified)	2%
51	Cn1nc2n(c1=O)CCC(NC(=O)c1cncc(Br)c1)CC2 (stereo unspecified)	0%
52	CCc1ncc(C(=O)N2CCN(Cc3ccccc3C#N)CC2)cn1	1%
53	O=C(NCCCc1ccccc1)C1CCCN(c2nc3ncccc3o2)C1 (stereo unspecified)	13%
54	O=C(CCC1CCN(C(=O)c2ccccc2)CC1)Nc1ccccc1	-7%
55	CS(=O)(=O)N1CCCC(C(=O)NCCc2ccccc2)CCNC(=O)CC1 (stereo unspecified)	-7%
56	COCC(=O)NC[C@H]1OC[C@@H](NC2CCN(C)CC2)[C@@H]1O	6%[70.6 µM]

Grouped by structure, the compounds so far containing a CF3 group (three)
cpd	Structure	hNpr1 antagonist
6	CCN(CC)[C@H]1[C@@H]2OC[C@@H](O2)[C@@H](NCc2ccc(OC(F)(F)F)cc2)[C@@H]1O	1%[70.6 µM]
7	O=c1[nH]c(C2CCN([S+](=O)([O-])c3cccc(C(F)(F)F)c3)CC2)nn1-c1ccc(F)cc1	14%
41	O=C(c1ccc2c(c1)OCCN(c1cccc(OC(F)(F)F)c1)C2)N1CCOCC1	?

Carrying on:
cpd	Structure	hNpr1 antagonist
57	CCc1ccccc1NC(=O)C1CN(S(=O)(=O)c2cccnc2)CC12CCCCC2 (stereo unspecified)	-5%
58	CCS(=O)(=O)N1C[C@@H](C(=O)N2CCCCCC2)[C@H](c2ccncc2)C1	5%
59	CNC(=O)N1CCC(C2CCN(C3CCN(CCc4ccccc4)CC3)C2)CC1 (stereo unspecified)	14%
60	O=c1c2c(nc3cc(-c4ccccc4)[nH]n13)CN(S(=O)(=O)c1cccs1)CC2	-13%
61	COc1ccccc1CNC(=O)CCc1nc(C2CCCN2C(=O)NC(C)C)no1 (stereo unspecified)	0%
62	Cc1nonc1CC(=O)N1CCCC(c2nnc(Cn3cccn3)n2C)C1 (stereo unspecified)	2%
63	O=C(C1CC1)N1CCCC(c2nn(-c3ccc(Cl)cc3)c(=O)[nH]2)C1 (stereo unspecified)	10%
64	CC(=O)c1cc(CC(=O)N2CCC3(CCCN(C(C)C)C3=O)C2)cs1 (stereo unspecified)	0%
65	CC(C)(C)CC(=O)NC[C@H]1OC[C@@H](NC2CCCC2)[C@@H]1O	1%[70.6 µM]
66	O=C(c1cn[nH]c1-n1cnnn1)N1CCn2nc(Cc3ccccc3)cc2C1	1%
67	COc1ccc2[nH]c3c(c2c1)CCN(C)C31CCN(C(=O)c2cccnc2)CC1	2%
68	COCCN1CCC(CN(Cc2ccncc2)C(=O)c2ccc(F)c(C)c2)CC1	2%
69	COc1ccccc1OC1(C(=O)O)CCN(Cc2cnn(C(C)C)c2)CC1	9%
70	C[C@@H](NCC1CCCC1)c1onc(-c2cccnc2)c1C(=O)O	-1%[70.6 µM]
71	COCCNC(=O)Cc1c[nH]c2ncc(-c3cccnc3)cc12	3%[70.6 µM]
72	CCC(=O)N1CCC(Cc2noc(-c3ccccc3)n2)C1 (stereo unspecified)	-4%
73	O=C1Nc2ccccc2O[C@H]2C[C@@H]1N(C(=O)c1ccc(Cl)cc1)C2	-23%[70.6 µM]
74	COC[C@@H]1CN(Cc2cc(C)nn2C)C[C@H]1c1nc(C2CC2)no1	5%
75	O=C(CCc1nc2ccccc2s1)N1CCC(Cc2noc(C3CCOCC3)n2)C1 (stereo unspecified)	-14%
76	CN(Cc1ccccc1)Cc1cn([C@H]2CO[C@H]3[C@@H]2OC[C@@H]3NC(=O)CCC(=O)O)nn1	9%[70.6 µM]
77	COCCC(=O)N1C[C@@H](COC)[C@H](c2nc(C)no2)C1	2%
78	N#Cc1cccc(CN2CCN(c3nccc(Cl)n3)C(=O)C2)c1	4%[70.6 µM]
79	COc1ccc(OC)c(NC(=O)Cn2c(=O)n(-c3cccc(C)c3)c(=O)c3c2cc(C)n3C)c1	-8%
80	O=C(c1cc2n(n1)CC(c1ccc3c(c1)OCO3)OC2)N1CCN(c2ccccc2)CC1 (stereo unspecified)	?
81	COc1ccc(CNC(=O)C[C@@H]2O[C@H](Cn3cc(CN(C)Cc4ccccc4)nn3)[C@@H](O)[C@H]2O)cc1	-1%
82	O=C(c1ccc(Cl)s1)N1CCC(n2cnnc2C2CC2)CC1	5%
83	Cn1cc(C(=O)N2CCC3(CC2)c2nc[nH]c2CCN3S(C)(=O)=O)cn1	0%
84	CN1CCC2(C1)CN(Cc1ccccc1)c1ccc(C(=O)NC3CCCCC3)cc12 (stereo unspecified)	-1%[70.6 µM]
85	COc1nc2c(cc1CNC(=O)CO)C(=O)N(CCc1ccccn1)C2	1%
86	OCCn1nc(-c2ccncc2)nc1CC12CC3CC(CC(O)(C3)C1)C2	6%
87	CN(C(=O)c1ccc(C(F)(F)F)cc1)C1CCCc2ccccc21 (stereo unspecified)	-2%[70.6 µM]
88	Cc1ccc2c(c1)c(Cn1cnc(-c3ccccc3)c1-c1cnc[nH]1)nn2C	0%
89	N#Cc1cccc(-c2cn3c(n2)N(C(=O)c2cnccn2)CCC3)c1	-11%
90	O=C(COc1ccc(F)cc1)N1CCC(c2n[nH]c(=O)n2-c2ccccc2)CC1	11%
91	COc1ccc(C(=O)N2CCCCCCNC(=O)[C@@H]3C[C@@H](c4nc(C(C)C)no4)C[C@@H]32)c(OC)n1	0%
92	CCOCc1nc(C2CCCN(C(=O)c3ccc(OC)cc3OC)C2)no1 (stereo unspecified)	28%
93	O=C1CCN(Cc2ccc(C(F)(F)F)cc2)CCCC(c2nc(-c3cccnc3)no2)CCN1 (stereo unspecified)	8.9µM*
94	O=C(CN1CCCc2nc(-c3ccccc3)ncc2C1=O)NC1CC1	4%
95	CCN(CC)Cc1cnc2c(C(=O)NC3CCCN(C(C)=O)C3)cnn2c1 (stereo unspecified)	2%
96	O=C1N[C@H](CC(=O)N2CCN(Cc3ccc4c(c3)OCO4)CC2)C(=O)Nc2ccccc21	-10%
97	COC1C(=O)N(CC2CC2)C12CCN(C(=O)c1ccc(C)s1)CC2 (stereo unspecified)	8%
98	CN(CC1CCOC1)S(=O)(=O)c1ccc(F)cc1F (stereo unspecified)	-2%
99	CCCN(C)C(=O)c1c(-c2ccccc2)noc1[C@H](C)O	-4%[70.6 µM]
100	O=C(c1ccc2ccccc2c1)N1C[C@@H]2C[C@H](C1)c1ccc(NS(=O)(=O)Cc3ccccc3)c(=O)n1C2	3%
101	O=C1NC2(CCN(CC3CC3)CC2)Oc2ccccc21	28%[70.6 µM]
102	COC(=O)[C@@H]1CN(C(=O)c2cccnc2)CCN1C(C)=O	3%[70.6 µM]
103	Cc1cc(-c2nc(C3CCOCC3)nn2Cc2ccccc2C)c(C)o1	-29%
104	CCN1C(=O)C2(CCN(S(=O)(=O)c3cccs3)CC2)c2ccccc21	6%
105	O=C(Cc1ccccc1F)N1CCC(c2nc(C3CCOCC3)no2)C1 (stereo unspecified)	20%
106	O=C(c1cc(F)ccc1F)N1CCC[C@H]1c1nc(-c2ccccc2)no1	-1%

A portion of the library (hit frequency here may not be typical).
